# CtBP-E1A inh = CtBP/E1A binding inhibition. AlphaScreen GST-E1A/His-CtBP binding, 1536-well; hits give low values; control for the full effect not named in the record. activity change, % (no concentration beside the values). 0.49% of 340,000 active; in the data active means activity change below about -65%; inconclusive means about -30% to -65%; inactive means above about -30%; also: % is scaled to controls: 0 for no effect and ±100 for the full control effect; compound concentration not given in the record
#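 Protein mix (5X: 125 nM each GST-E1A, His-CtBP) was incubated with pinned compound 2 h at 37 deg C in dark, in 50 mM Tris pH 8.0 buffer with 300 mM NaCl. Glutathione donor and nickel acceptor beads followed; AlphaScreen signal read after 1 h.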
# gsp antagonist = gsp mutant antagonism | gsp-mutant cells, cAMP HTRF, 30 min; control for the full effect not named in the record | Potency, µM (series often up to 76.9 µM), for the others: top-dose activity change, negative = inhibition, most hits filed as inhibitors | 0.4% of 340,000 active; active = falling curve of any shape with a large fitted effect; inconclusive = falling curve, mostly with a smaller effect; inactive = flat or rising curve; cell line not stated here;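 also: intracellular cAMP measured with PDE inhibitor Ro 20-1724 present during compound exposure; potency is read from the fitted curve at half-maximal effect; % is scaled to controls: 0 for no effect and ±100 for the full control effect; nearly all actives have a fitted effect of over 65% in size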
#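 Cells, 2000/well, grown 16–24 h in DMEM 10% FBS with 0.5 mg/ml G418, then compounds plus […] (300 uM addition stock), 30 min at 37C. cAMP read by HTRF (cAMP-d2 and anti-cAMP antibody-K in lysis buffer) after 30 min RT.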
# Six1-Eya2 inh = Six1/Eya2 interaction inhibition; AlphaScreen GST-Six1/His-Eya2 binding, biochemical; hits give low values; control for the full effect not named in the record; activity change, % (concentration not given with the values); 0.56% of 360,000 active; AID 651725; in the data active = activity change below about -65%; inconclusive = about -30% to -65%; inactive = above about -30%; also: % is scaled to controls: 0 for no effect and ±100 for the full control effect
# Target sequence (O00167 whole entry, looked up): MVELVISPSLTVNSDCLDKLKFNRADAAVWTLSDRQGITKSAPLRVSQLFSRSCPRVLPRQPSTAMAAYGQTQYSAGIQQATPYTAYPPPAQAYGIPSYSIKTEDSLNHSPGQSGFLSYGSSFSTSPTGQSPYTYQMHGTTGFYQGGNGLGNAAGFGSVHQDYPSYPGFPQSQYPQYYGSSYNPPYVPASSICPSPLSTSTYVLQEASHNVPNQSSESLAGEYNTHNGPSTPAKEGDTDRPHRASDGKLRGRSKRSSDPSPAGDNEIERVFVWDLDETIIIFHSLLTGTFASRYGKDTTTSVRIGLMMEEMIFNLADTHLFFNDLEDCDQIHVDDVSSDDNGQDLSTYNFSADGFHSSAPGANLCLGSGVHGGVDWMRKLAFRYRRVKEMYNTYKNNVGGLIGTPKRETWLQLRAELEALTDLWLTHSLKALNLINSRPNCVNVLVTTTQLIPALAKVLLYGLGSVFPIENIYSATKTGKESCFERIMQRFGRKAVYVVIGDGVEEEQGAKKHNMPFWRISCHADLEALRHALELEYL
# Target sequence (Q15475 whole entry, looked up): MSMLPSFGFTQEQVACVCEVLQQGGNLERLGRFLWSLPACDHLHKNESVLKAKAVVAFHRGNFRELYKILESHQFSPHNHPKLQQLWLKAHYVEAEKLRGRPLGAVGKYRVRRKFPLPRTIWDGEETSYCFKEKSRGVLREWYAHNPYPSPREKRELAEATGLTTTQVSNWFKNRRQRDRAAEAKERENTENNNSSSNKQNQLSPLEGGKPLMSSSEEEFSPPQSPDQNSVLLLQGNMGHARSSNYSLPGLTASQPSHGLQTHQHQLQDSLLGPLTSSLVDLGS
#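 AlphaScreen with GST-Six1 and His-Eya2 (5X mix: 250 nM and 500 nM), glutathione donor and nickel acceptor beads; buffer 50 mM Tris pH 8.0, 300 mM NaCl, 1 mM TCEP; 1 h at 37 C in the dark.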
# D2 ag = human D2 receptor agonism in beta-arrestin assay; DiscoveRx PathHunter D2 beta-arrestin, luminescence, 90 min; 100% = 57 uM dopamine signal; activation, % (test concentration not listed); 0.084% of 360,000 active; AID 624465; in the data active = activation above about 40%; inconclusive = about 15% to 40%; inactive = below about 15%; also: compound concentration not given in the record; the text of the record calls up to 30% inactive
#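 DiscoveRx PathHunter D2 beta-arrestin cells (2,100/well) attached overnight, then compound-stimulated 90 min at 37 C in HBSS/10 mM HEPES/0.1% Tween-20 buffer; beta-galactosidase complementation read by luminescence after 1 h at ambient temperature. Dopamine 57 uM final (EC100) as control.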
# gsp ag = activates gsp, the McCune-Albright syndrome mutation; gsp mutant cells, cAMP HTRF, 30 min; control for the full effect not named in the record; Potency, µM (series often up to 76.9 µM), for the others: at the highest dose activation (cAMP increase), most hits filed as activators; 0.13% of 340,000 active; AID 624287; active = well fitted activation curve with a large enough effect; inconclusive = small, poorly fitted or top-dose-only effect, or another doubt; inactive = no such curve, though single readings can be large or run the other way; cell line not stated here;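 also: phosphodiesterase inhibitor Ro 20-1724 added with compounds to block cAMP breakdown; potency is read from the fitted curve at half-maximal effect; nearly all actives have a fitted effect of over 60% in size; about a fifth of the inactives were tested at one dose only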
#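 Cells stably selected in G418 were plated at 2000/well, grown 16-24 hr, then given compounds in DMSO with the PDE inhibitor […] (300 uM solution added) for 30 min at 37C; cAMP was read by HTRF.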
# D2 PAM = positive allosteric modulators of human D2 dopamine receptor | DiscoveRx D2 beta-arrestin cells, luminescence, 90 min; 100% = 57 uM dopamine signal | 0.23% of 360,000 active | P14416 | potentiation, % (no concentration beside the values); active = potentiation of 50% or more; inconclusive = 30% to 50%; inactive = 30% or less;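 also: compound concentration not given in the record; tested on top of an EC20 dose of dopamine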
#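 D2 cells co-treated with compound plus 50 nM dopamine (EC20) for 90 min at 37 deg C to detect potentiation. Beta-arrestin recruitment was read as enzyme-fragment luminescence after 1 h at ambient temperature. Full response was set by 57 uM dopamine.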
# Active calls of the source: *; u = inconclusive; x = no result given; [ ] = remark or other dose. Random draw from the library, and some 1.4% of all compounds hit somewhere here.
SMILES,CtBP-E1A inh,gsp antagonist,Six1-Eya2 inh,D2 ag,gsp ag,D2 PAM
CCOC(=O)CSc1nnc(CNC(=O)c2cc(OCC)c(OCC)c(OCC)c2)n1C,1.3,6.7%,-2.5,-0.9,-18.0%,-21.2
Cc1ccc(CNCC(O)c2ccccc2)s1 (centres undefined),10.0,8.2%,0.8,-0.6,-20.1%,-8.5
CCCn1c(C(O)c2cccc(OC)c2)nc2ccccc21 (centres undefined),-4.6,0.6%,16.1,0.7,-50.9%[15.4 µM],0.6
CC1(C)CN(Cc2cccnc2)C(=O)[C@H]1CC(=O)Nc1ccc(Br)cc1,3.0,x,-4.6,-2.5,u,-4.9
COc1ccc2c(c1)N1CCN=C1N2C,6.3,-2.6%,4.0,-1.0,3.3%,-1.9
CC(=O)Nc1ccc(C(=O)COC(=O)c2ccco2)c(F)c1,x,-1.1%,-3.9,1.7,-17.0%,-1.5
CCCCn1c(N)c(N(CC(C)C)C(=O)CCCc2cccs2)c(=O)[nH]c1=O,-10.6,8.8%,5.6,-6.5,4.4%[15.4 µM],-1.5
O=C(COC(=O)COc1ccccc1)NCCC1=CCCCC1,x,10.3%,-1.0,-3.7,16.8%,-2.4
O=C(CNS(=O)(=O)c1ccccc1Br)OCC(=O)N1CCc2ccccc21,-3.3,u,0.8,-0.8,-16.8%,-11.9
NC(=O)c1ccc(NC(=O)c2ccc(CN3CCOCC3)cc2)cc1,-2.2,1.1%,2.6,-1.1,-13.4%,-8.6
COCCNc1nc(NCCN2CCNC2=O)c2sc(-c3ccccc3)cc2n1,-7.3,x,-20.9,-6.7,x,-15.8
Cc1ccc(CNC(=O)c2cc3c(s2)CS(=O)(=O)C3)cc1,-0.5,11.6%,1.6,1.4,24.9%,-6.9
Cc1ccc(NN2C(=O)C=CC2=O)cc1,-5.9,-9.5%,2.3,-1.0,-4.1%[15.4 µM],-3.0
Clc1ccc(CCNc2nc3ccccc3n3nnnc23)cc1,2.1,-9.6%,11.7,-4.6,-0.2%,-10.5
O=C(NCCOc1ccccc1F)c1ccccc1SCc1ccc(F)cc1,19.6,u,7.4,0.9,-3.2%[15.4 µM],-19.0
CCc1ccc(NC(=O)c2cnc3scc(C)n3c2=O)cc1,7.8,-0.1%,4.3,-1.7,-49.6%[inhibitor],-7.3
CC1(C)Oc2ccc3ccc(=O)oc3c2[C@H](O)[C@H]1O,0.0,12.5%,28.7,3.1,x,3.2
CC1CCCCN1C(=O)COC(=O)c1cccc(NS(=O)(=O)c2ccccc2)c1 (centres undefined),2.1,-0.9%,-3.7,-2.5,-5.3%[15.4 µM],0.8
CCCCOc1ccc(N=Cc2cccs2)cc1,-12.7,16.5%,-12.7,-7.3,-38.7%[15.4 µM],-13.7
CC(=O)Nc1cccc(NC(=O)CSc2nccn2Cc2ccco2)c1,-1.2,-7.4%,2.3,2.1,10.0%[15.4 µM],-22.3
C=CCn1c(=O)c(C(=O)NC(C)c2ccccc2)c(O)c2ccccc21 (centres undefined),12.0,-3.8%,10.4,-3.1,-13.2%,1.3
CC(C)CCN1C(=O)c2ccc(C(=O)OCn3nnc4ccccc4c3=O)cc2C1=O,3.2,-1.1%,5.0,-0.9,-3.8%,2.8
O=S(=O)(c1ccc(Cl)cc1)N1CCC(N2CCCCCC2)CC1,-1.7,5.2%,-0.7,-0.8,u,-10.8
CCCCCCC(=O)Nc1nc(C)c(-c2csc(Nc3cc(Cl)ccc3C)n2)s1,-18.8,6.0%,-15.6,-2.8,x,-11.9
O=C(NNc1nc(-c2ccccc2)c2cc(Br)ccc2n1)c1ccc(S(=O)(=O)N2CCCCC2)cc1,0.0,-16.4%,-10.7,-2.3,-7.6%,-19.1
# Next compounds follow.
SMILES,CtBP-E1A inh,gsp antagonist,Six1-Eya2 inh,D2 ag,gsp ag,D2 PAM
COc1ccc(-c2c(C)oc3ccc(C)cc23)cc1,37.2,-19.3%,37.5,-4.1,-20.1%,-12.6
O=C(CCN1CCN(Cc2ccccc2)CC1)NNC(=O)c1cc2ccccc2o1,3.6,0.0%,-2.6,-6.2,-34.9%[inhibitor],-3.8
COc1ccc(-n2c(SCC(=O)Nc3nc(C)cs3)nnc2-c2ccoc2C)cc1,-9.8,-30.5%,-16.7,-2.2,10.9%,-18.6
O=C(Cc1ccc(Cl)cc1Cl)OCC(=O)N1CCCCC1,2.4,8.4%,-9.0,-4.1,-20.3%[15.4 µM],-1.8
CN1C(=O)NC(c2cccc([N+](=O)[O-])c2)C2=C1CC(C)(C)CC2=O (centres undefined),7.1,-7.4%,5.8,0.4,17.9%,5.2
COc1cc2nc(SCc3ccc(F)cc3)n(Cc3cccs3)c(=N)c2cc1OC,-2.1,5.8%,-5.5,-0.9,23.8%,16.5
Cc1ccc(Oc2nc(CN3CCOCC3)nc3sc4c(c23)CCC(C)C4)cc1C (centres undefined),0.0,-7.8%,0.7,-6.9,7.2%,-7.1
CC(=O)Nc1ccc(CNC(=O)C[N+]2(C)CCOCC2)cc1,-3.4,19.3%,5.8,-0.8,1.0%[15.4 µM],3.5
COc1ccc(N2CCN(C(=O)CSc3nnc4c(C)cc5cc(C)ccc5n34)CC2)cc1,-4.6,3.1%,-0.3,-2.0,-5.9%,-8.2
CC(C)(Oc1ccc(Cl)cc1)C(=O)NNC(=O)c1ccc(Br)o1,7.5,1.0%,3.3,0.3,-22.0%,7.7
Cc1ccc2c(C)cc(=S)[nH]c2c1,x,18.0%,-5.4,-1.2,22.4µM*,3.2
COc1ccc(C(=O)Nc2ccc(NC(=O)c3cccs3)c(OC)c2)cc1Cl,-2.8,-16.6%,3.7,6.5,-24.0%[15.4 µM],-0.8
CCOC(=O)NCc1ccc(CNC(=O)OCC)cc1,6.8,3.9%,0.8,0.1,1.7%,6.1
COc1ccc(Cn2c(N)c(C#N)c3nc4ccccc4nc32)cc1OC,-22.6,21.3%,-15.7,-1.6,2.9%,-9.1
Cc1cccc(OCCOC(=O)C2CCN(S(=O)(=O)c3cccs3)CC2)c1,2.0,2.1%[15.4 µM],19.5,0.7,-3.5%,-9.6
CCCc1ccc(C(=O)NNc2ccc(F)cc2)cc1,3.8,8.6%,0.2,-10.3,23.6%,-18.5
O=c1[nH]cc(S(=O)(=O)c2ccccc2)[nH]1,x,-5.0%,-7.8,2.8,7.3%[15.4 µM],-4.1
CCOC(=O)C1CCN(S(=O)(=O)c2c(C)[nH]c(=O)[nH]c2=O)CC1,-0.5,8.6%,-1.3,-2.1,12.1%,-7.3
Brc1c(CSc2nncn2-c2ccccc2)nc2sccn12,4.6,-1.9%,3.7,-0.2,6.3%,-10.0
COc1ccc(C(=O)Nc2ccccc2N2CCCC2)cc1,-4.4,-0.3%,-4.5,-3.0,-16.8%,-8.9
CN1CCN(C2OC(=O)c3ccccc32)CC1 (centres undefined),1.0,10.0%,8.5,-2.3,5.1%,-2.0
NC(=O)c1ncn([C@@H]2O[C@H](CNCc3cc(Br)ccc3OCc3ccccc3)[C@@H](O)[C@H]2O)n1,-0.2,10.7%,2.0,-2.5,x,x
COc1ccccc1NC(=O)c1cc(S(=O)(=O)N2CCc3ccccc32)ccc1F,1.1,3.8%,-1.4,-0.1,2.2%,-4.8
O=C(/C=C/c1c(F)cccc1Cl)Nc1cccnc1,x,-3.2%,3.6,2.3,-52.8%[inhibitor],u
CC(C)Cc1nnc(NC(=O)CCC(=O)Nc2ccccc2F)s1,0.3,13.2%,11.7,-1.7,-33.6%[inhibitor],-4.0

# A second format for some results above:
CtBP-E1A inh	gsp antagonist	Six1-Eya2 inh	D2 ag	gsp ag	D2 PAM	smiles
x	-5.0%	-7.8	2.8	7.3%[15.4 µM]	-4.1	O=c1[nH]cc(S(=O)(=O)c2ccccc2)[nH]1
x	-3.2%	3.6	2.3	-52.8%[inhibitor]	u	O=C(/C=C/c1c(F)cccc1Cl)Nc1cccnc1
x	18.0%	-5.4	-1.2	22.4µM*	3.2	Cc1ccc2c(C)cc(=S)[nH]c2c1

# More records follow.
SMILES,CtBP-E1A inh,gsp antagonist,Six1-Eya2 inh,D2 ag,gsp ag,D2 PAM
CC(=O)Nc1ccc(NC(=O)COC(=O)c2c(-c3ccccc3)noc2C)cc1,0.8,1.6%,-5.0,1.3,-52.0%[inhibitor],-0.1
COC(=O)/C(=C(/F)Sc1cc(C)c(O)c(C)c1)C(F)(F)F,-5.9,6.4%,-2.2,-3.0,-0.6%,-16.3
Cc1ccn2c(-c3n[nH]c(=S)n3Cc3ccccc3)c(C)nc2c1,-2.6,-4.7%,6.4,-5.0,-10.5%,1.6
CCOc1ccc2[nH]c3c(NCCC(C)C)ncnc3c2c1,-14.3,-27.3%,-13.1,-2.5,18.7%,-16.6
CCc1nc2ccc(C(=O)Nc3cccc(C(C)=O)c3)cc2nc1CC,-19.5,-9.8%,-16.8,1.4,3.5%[15.4 µM],-2.3
CCN(CC)C(=O)COc1cccc2ccccc12,0.0,-3.0%,25.5,0.7,3.6%,-10.9
COc1ccc(OC)c(-c2cc(-c3cccnc3)nc(N)c2C#N)c1,-1.3,-7.8%,11.0,3.1,-2.3%[15.4 µM],-11.6
COc1ccc(OC)c(N(CC(=O)Nc2ccc3c(c2)OCCO3)S(C)(=O)=O)c1,5.2,-1.2%,2.5,-2.1,0.0%,19.8
O=C(CSc1ccc2nnc(-c3ccc(Cl)cc3)n2n1)N1CCCC1,3.8,-5.6%,9.5,-6.3,u,-4.0
COc1ccc(N2CCN(CCCn3c(=S)[nH]c4ccccc4c3=O)CC2)cc1,x,-7.0%,18.9,8.4,-5.7%,-7.2
CCc1ccccc1NC(=O)Nn1cnnc1,0.8,5.4%,2.0,0.2,1.8%,-8.0
C=CCOc1ccc(/C=N/NC(=O)C(C)Sc2ccccn2)cc1OC (centres undefined),-26.2,-13.1%,-22.7,-1.8,9.6%,0.2
CC(CN1CCCCC1)NC(=O)c1cccs1 (centres undefined),x,3.8%,6.5,-3.4,-7.3%,-5.8
CCOC(=O)CSc1nnc(Cc2cc(=O)[nH]c(=O)[nH]2)n1-c1ccc(Cl)cc1,-2.6,8.1%,7.9,-5.7,-25.8%,-3.5
Cc1cc(NC(=O)CCC(=O)N(c2ccc(C)c(F)c2)C(C(=O)NC2CCCC2)c2ccco2)no1 (centres undefined),-12.1,-10.3%,-7.8,0.7,1.7%,-3.6
O=C1CCNCCN1[C@H](CO)Cc1ccccc1,4.4,4.7%,9.4,-0.2,x,-11.6
COc1cc2c(cc1OC)CN(C(=O)c1ccc3[nH]c(C)c(C)c3c1)CC2,-6.4,-7.7%,-14.9,3.1,x,6.5
Cc1nn(C)cc1CN(C)C(=O)c1nn2c(c1Cl)NC(c1cccs1)CC2C(F)(F)F (centres undefined),-13.0,-9.4%,-7.6,-3.5,-8.9%,8.5
CCOc1ccc(CNC(=O)C2CCCN(S(=O)(=O)N3CCC(C)CC3)C2)cc1OC (centres undefined),0.8,x,0.0,-0.4,-14.1%,-3.4

# Compound activity from PubChem BioAssay.
